# Screening results: PubChem, several laboratories
# MT1-MMP reporter: inhibitors of MT1-MMP promoter transcription, cell-based, luciferase reporter, luminescence (AID 618); MT1-MMP promoter luciferase reporter cells, luminescence; calls from a first round at 10 µM; hits with a dose series show EC50 in µM; hit rate 0.62% among 87,000;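 active = over half of the reporter light lost at 10 µM or EC50 under 50 µM; inactive = the rest and hits that failed the dose series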;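 note: actives suppress MT1-MMP promoter-driven transcription so potencies describe inhibitors; HT1080 fibrosarcoma cells; overnight exposure; toxic or luciferase-blocking compounds were not removed from the actives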
# Hsc70: Hsc70 inhibitors, probe displacement, primary screen, biochemical, fluorescence polarization (AID 568); Hsc70 fluorescence polarization, probe displacement; higher % means a stronger effect; strong numbers were not always called active; displacement, % at 20 µM, or IC50 in µM where a hit was titrated; 83,000 tested, under 10 active;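 active = displacement above 50% without optical interference and an IC50 on retest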;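 note: ATPase domain with a fluorescein-tagged ATP probe; 0% = vehicle and 100% = excess ADP; read after one hour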
# WNV NS2B-NS3 inh: inhibitors of West Nile virus NS2B-NS3 protease. P06935. WNV NS2B-NS3 protease, fluorogenic substrate Ex360/Em465; active compounds read low. z-score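 (tested at a level between 10 and 100 µM)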. hit rate 0.18% among 65,000. AID 577;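 active = z-score at -3 or under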;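 note: score is relative to mean and spread of the compound wells of a plate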
# Target sequence (P06935 1371-1501 limits assumed): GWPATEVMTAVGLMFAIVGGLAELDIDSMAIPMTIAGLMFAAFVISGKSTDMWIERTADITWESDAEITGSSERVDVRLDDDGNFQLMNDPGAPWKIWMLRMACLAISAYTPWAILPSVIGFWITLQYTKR
# Target sequence (P06935 1502-1679 limits assumed): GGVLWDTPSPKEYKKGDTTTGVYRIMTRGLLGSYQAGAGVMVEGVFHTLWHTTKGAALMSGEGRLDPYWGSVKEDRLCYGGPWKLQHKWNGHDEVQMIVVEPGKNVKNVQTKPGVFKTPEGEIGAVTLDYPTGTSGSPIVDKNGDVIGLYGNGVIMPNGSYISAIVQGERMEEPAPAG
# * = called active by the depositor; i = inactive; . = no result given. This is a subset; count on the stated rates, not on these rows.
SMILES,MT1-MMP reporter,Hsc70,WNV NS2B-NS3 inh
O=C(CN1CCN(Cc2ccc3c(c2)OCO3)CC1)Nc1ccc2c(c1)OCCO2,i,-2.5%,-0.11
CSc1nnc(-c2cnccn2)n1C,i,-2.8%,1.6
Cc1c(C(=O)Nc2ccccc2N2CCOCC2)sc2nc3n(c(=O)c12)CCC3,i,7.0%,-0.96
COc1ccc(-c2nc(N3CCCC3)[nH]c(=O)c2C#N)cc1,i,2.4%,-0.28
COc1ccc2nc3oc(C(=O)N4CCN(c5cccc(Cl)c5)CC4)cc3cc2c1,i,0.8%,-1.1
Cc1ccc(S(=O)(=O)N(CCO)Cc2cc3ccc(C)c(C)c3[nH]c2=O)cc1,i,-5.5%,0.59
Nc1nonc1-c1noc(CCCN2C(=O)c3ccccc3C2=O)n1,i,-5.9%,-0.56
CCOC(=O)Cc1csc(NS(C)(=O)=O)n1,i,-1.9%,.
CCc1ccc(C2C3=C(CC(C)(C)CC3=O)Nc3c2c(=O)[nH]c2nc(C)nn32)cc1 (stereo not given),i,1.0%,-0.59
CCc1c(C)c2ccc(OCC(N)=O)cc2oc1=O,i,1.0%,-0.1

# Complete entries as entered above.
# COc1ccc(-c2nc(N3CCCC3)[nH]c(=O)c2C#N)cc1 is listed with MT1-MMP reporter: i; Hsc70: 2.4%; WNV NS2B-NS3 inh: -0.28
# CSc1nnc(-c2cnccn2)n1C is listed with MT1-MMP reporter: i; Hsc70: -2.8%; WNV NS2B-NS3 inh: 1.6

# Continuation.
SMILES,MT1-MMP reporter,Hsc70,WNV NS2B-NS3 inh
CCOc1ccc(CN2CCN(c3cc(C)nc4c5c(C)cc(C)nc5nn34)CC2)cc1,i,-8.0%,0.72
COc1cc2c(cc1OC)C(C(=O)O)C(c1cc(Br)c(O)c(OC)c1)N(C)C2=O (stereo not given),i,3.8%,0.46
CCCn1c(SCC(=O)Nc2c(CC)cccc2CC)nnc1C(C)C,i,1.2%,0.3
CCCCc1ccc(Nc2nc(CCC)cc(=O)[nH]2)cc1,i,4.4%,0.7
CCOc1ccc(N(C(C)C(=O)Nc2ccc(OC)cc2)S(C)(=O)=O)cc1 (stereo not given),i,0.2%,-0.42
COC(=O)c1c(C)[nH]c(C)c1-c1ccccc1Cl,i,-2.6%,-0.42
O=c1oc2ccccc2c(Nc2ccc(O)cc2)c1[N+](=O)[O-],i,-2.2%,.
CCOC(=O)c1[nH]c(=O)[nH]c1CSc1nc(C)cc(C)n1,i,6.8%,2.6
O=C(O)c1cc(-c2ccccc2)n(-c2ccccc2C(=O)O)n1,i,7.2%,0.31
COc1ccc(OC)c(NS(=O)(=O)c2ccc(SC)cc2)c1,i,4.1%,-1
CC(C)(C)n1nnnc1CN1C2CCC1CC(NC(=O)Nc1ccccc1)C2 (stereo not given),i,-3.1%,-0.67
Cc1ccc(C(=O)Nc2ncnc3sc4c(c23)CCCCC4)cc1,i,0.7%,.
O=C(NC(C(=O)N/N=C/c1c2ccccc2cc2ccccc12)c1n[nH]c(=O)c2ccccc12)c1ccccc1 (stereo not given),i,-0.2%,.
CCn1cc(Br)c(C(=O)Nc2cccc(SC)c2)n1,i,-2.5%,0.17
CN1CC(=O)N(C)c2nc(Br)n(C)c2C1=O,i,-2.6%,-0.82
COCCCNC(=O)c1oc2ccc(S(=O)(=O)N(C)C3CCCCC3)cc2c1C,i,-0.1%,2.3
Cc1cccc(C(=O)Nc2ccc(CC(=O)O)cc2)c1,i,-6.8%,-0.53
c1ccc(-c2n[nH]c3c2CCC3)cc1,i,0.3%,-0.26
COc1ccc(S(=O)(=O)N2CCC(C(=O)NCc3ccco3)CC2)cc1,i,-0.1%,-0.54
CCN(CC)S(=O)(=O)c1ccc2oc(C(=O)N3CCOCC3)c(C)c2c1,i,-3.6%,0.73

# Brought forward from above: 5 entries; new compounds follow.
SMILES,MT1-MMP reporter,Hsc70,WNV NS2B-NS3 inh
COCCCNC(=O)c1oc2ccc(S(=O)(=O)N(C)C3CCCCC3)cc2c1C,i,-0.1%,2.3
Cc1cccc(C(=O)Nc2ccc(CC(=O)O)cc2)c1,i,-6.8%,-0.53
c1ccc(-c2n[nH]c3c2CCC3)cc1,i,0.3%,-0.26
COc1ccc(S(=O)(=O)N2CCC(C(=O)NCc3ccco3)CC2)cc1,i,-0.1%,-0.54
CCN(CC)S(=O)(=O)c1ccc2oc(C(=O)N3CCOCC3)c(C)c2c1,i,-3.6%,0.73
Cc1cc(C)c2c(n1)nn1c(N3CCN(c4ccccn4)CC3)cc(C)nc21,i,-1.4%,-0.63
Brc1ccc(-c2nnc3sc(CN4CCc5ccccc5C4)cn23)cc1,i,0.1%,-1.4
CCOC(=O)C1CCN(C(=O)c2ccc3snnc3c2)CC1,i,-0.7%,-0.03
O=C(CN1CCOCC1)Nc1ccc(C2CCCCC2)cc1,i,-0.1%,1.2
Nc1nonc1C(=O)NCCN=Cc1ccccc1O,i,-1.3%,.
COc1ccc(OCCOCCN2CCOCC2)cc1,i,0.1%,.
CCOC(=O)C1=C(C)N=c2s/c(=C\c3ccncc3)c(=O)n2C1c1ccc2c(c1)OCO2 (stereo not given),i,-27%,-0.17
Clc1ccc2[nH]c3c(c2c1)CCc1cn[nH]c1-3,i,-2.6%,-1.2
CNc1cccccc1=S,i,29%,2
CC(=NCc1ccco1)C1=C(O)c2ccccc2C1=O,i,0.0%,0.81

# Reprinted at random: 2 compounds from above, in no set order.
SMILES,MT1-MMP reporter,Hsc70,WNV NS2B-NS3 inh
CCOC(=O)C1CCN(C(=O)c2ccc3snnc3c2)CC1,i,-0.7%,-0.03
Nc1nonc1C(=O)NCCN=Cc1ccccc1O,i,-1.3%,.

# Other entries follow:
SMILES,MT1-MMP reporter,Hsc70,WNV NS2B-NS3 inh
CC(=O)C1=C(O)C(=O)N(CC#N)C1c1cccs1 (stereo not given),i,-0.2%,.
CC1(C)NC(=O)N(CCOCCOc2cccc(Oc3ccccc3)c2)C1=O,i,7.4%,-0.77
O=C(CN1CCOc2ccccc21)NCc1ccc(Cl)cc1,i,0.1%,0.54
c1csc(-c2cnc3ccccc3n2)c1,i,5.1%,1.7
CCN1C(=O)CC(N2CCC(C(=O)OC)CC2)C1=O (stereo not given),i,0.3%,-1
CCN(CC)S(=O)(=O)c1cc(NC(=O)COC(=O)CCc2nc3ccccc3s2)ccc1C,i,-1.1%,.
OC(COc1c(F)cc(Br)cc1F)CN1CCN(c2ccc(F)cc2)CC1 (stereo not given),i,2.0%,-0.39
C=CCn1cc(C(=O)NCCOC)c(=O)c2cc(S(=O)(=O)N(CC)CC)ccc21,i,-0.8%,-0.04
CCN1CCN(c2nc(-c3ccncc3)nc3ccccc23)CC1,i,2.5%,.
COC(=O)CCc1c(C)[nH]c(C(=O)OCc2ccccc2)c1C,i,5.0%,0.37

# Some of these compounds in order of SMILES length, lowest first.
SMILES,MT1-MMP reporter,Hsc70,WNV NS2B-NS3 inh
c1csc(-c2cnc3ccccc3n2)c1,i,5.1%,1.7
CCN1C(=O)CC(N2CCC(C(=O)OC)CC2)C1=O (stereo not given),i,0.3%,-1
OC(COc1c(F)cc(Br)cc1F)CN1CCN(c2ccc(F)cc2)CC1 (stereo not given),i,2.0%,-0.39

# The list goes on.
SMILES,MT1-MMP reporter,Hsc70,WNV NS2B-NS3 inh
COc1ccc(O)c(C(=O)c2cc(C#N)c(=O)n(-c3c(C)n(C)n(-c4ccccc4)c3=O)c2)c1,i,-19%,0.08
CCOC(=O)c1[nH]c2ccc(OC)cc2c1NC(=O)c1cccc(OC)c1,i,2.6%,.
CN(Cc1ccccc1)c1ncnc2c1cnn2-c1ccccc1,i,-1.9%,1.4
CC(=O)c1ccc(NC(=O)CCn2c(=O)oc3ccccc32)cc1,i,5.6%,-0.52
CCCc1cc(=O)[nH]c(SCC(=O)NCCCC(=O)OCC)n1,i,-1.5%,.
O=C(CN1CCN(C2CCCCC2)CC1)Nc1ccccc1-c1ccccc1,i,6.1%,0.2
Nc1nc(-c2ccccc2Br)cs1,i,-4.9%,0.22
CCN1CCN(C(=O)Cn2c(=O)sc3ccccc32)CC1,i,2.6%,0.86
COC(=O)C1=C(C(=O)OC)C2(OC1c1ccccc1C)C(=O)c1ccccc1C2=O (stereo not given),i,-0.6%,.
Cc1[nH]nc2c1C(=O)CCC2,i,-2.1%,0.29
Cc1ccc(C2=[N+]([O-])C3(CCCCC/C3=N\O)N(O)C2(C)C)o1 (stereo not given),i,2.9%,-1.3
O=C(CSc1ncccc1-c1nc2ccccc2[nH]1)NC1CC1,i,-2.0%,-0.95
Cn1ccnc1SCC(=O)Nc1cccc2ccccc12,i,1.0%,-0.31
O=C(C1CCC(=O)N1Cc1ccccc1Cl)N1CCN(c2cccc(Cl)c2)CC1 (stereo not given),i,-6.6%,-0.12
CC(C(=O)NCc1ccccc1)N1C(=O)CN(C)C(=O)c2ccccc21 (stereo not given),i,4.6%,-0.44
O=C(NC1CCCC1)C1C2C=CC3(CN(Cc4cccs4)C(=O)C13)O2 (stereo not given),i,2.6%,-0.19
O=C(c1ccc(COc2c(F)c(F)cc(F)c2F)o1)N1CCN(c2ccccc2)CC1,i,1.5%,.
CN(C)CCCN1C(=O)C(=O)/C(=C(/O)c2ccc3c(c2)OCCO3)C1c1ccco1 (stereo not given),i,-8.2%,-0.31
NC(=O)c1ccccc1NS(=O)(=O)Cc1ccccc1,i,7.2%,1.7
CCCc1nc2ccccc2c(C(=O)O)c1CC,i,-4.0%,.
CS(=O)(=O)Nc1ccccc1C(=O)N1CCOCC1,i,-0.1%,-0.45
O=C(COC(=O)C12CC3CC(CC(O)(C3)C1)C2)NC(=O)NCc1ccco1,i,1.9%,1.3
CCc1c(C)nc2[nH]nc(-c3ccccc3)n2c1=O,i,-4.6%,-0.5
Cc1nc(N2CCN(Cc3ccccc3)CC2)nc2c1C(=O)CCC2,i,-2.7%,0.24
CC1CCN(S(=O)(=O)c2ccc(S(=O)(=O)N3CCCN(Cc4ccccc4)C3)cc2)CC1,i,3.1%,.
Cc1ccc(OCCN2C(=O)CSC2=O)cc1,i,-6.0%,1
Cc1cc(C)c(S(=O)(=O)NCc2cn3c(C)csc3n2)c(C)c1,i,0.5%,-0.5
C=CCOc1ccc(C(=O)N(Cc2ccc(N(C)C)cc2)C2CCS(=O)(=O)C2)cc1 (stereo not given),i,-8.1%,-0.46
COC(=O)C(NC(=O)c1ccco1)(Nc1cc(C)ccn1)C(F)(F)F (stereo not given),i,3.6%,.
CC(=O)OC(C(=O)N1CCN(c2ccc(F)cc2)CC1)c1ccccc1 (stereo not given),i,-2.6%,.
CN1/C(=C/C=N/n2cnnc2)C(C)(C)c2ccccc21,i,-3.7%,-0.64
COc1cc(-c2c(C#N)c(N)nc3c2c(C)nn3-c2ccc(C)c(C)c2)cc(OC)c1OC,i,-27%,-0.48
CC1Cc2ccccc2N1C(=O)CSc1nnc2c(n1)[nH]c1ccc(F)cc12 (stereo not given),i,-3.4%,.
CC(C)Oc1ccc(Cn2c(-c3ccco3)n[nH]c2=S)cc1,i,2.2%,.
C=CC[n+]1c(-c2ccc(OC)cc2)csc1NNC(=O)Nc1ccccc1,i,-0.2%,.
CCc1[nH]c(=O)c(C#N)c2c1CCCC2,i,8.9%,-0.58
COc1cc(NC(=O)c2ccc(Cl)cc2)c(OC)cc1NC(=O)CN1CCOCC1,i,-3.4%,0.16
CCOC(=O)C1=C(Cn2cnc3ccccc32)NC(=O)NC1c1cc(C)ccc1C (stereo not given),i,2.9%,-0.7
COc1ccc(CN(Cc2ccccn2)S(=O)(=O)c2ccc(-n3cnnn3)c(OC)c2)cc1,i,-4.0%,-0.77
CCSc1nc2c(c(=O)n(C)c(=O)n2C)n1Cc1ccc(Cl)cc1,i,5.9%,0.12
CC1CCC(NC(=O)c2cc3c(s2)CS(=O)(=O)C3)CC1 (stereo not given),i,4.3%,0.53
O=C(Nc1ccc2c(c1)CCC2)c1cnn2c1NC(c1ccco1)CC2C(F)(F)F (stereo not given),i,-2.4%,0.2
O=C(CSc1ncnc2c1oc1ccccc12)Nc1cccc(Cl)c1,i,-6.3%,-0.32
CCCCNC(=O)C(C#N)c1nc2ccccc2nc1N1CCN(c2ccccc2F)CC1 (stereo not given),i,-4.4%,-1.6
N#Cc1ccc(CSc2nnc(-c3cccc(S(=O)(=O)N4CCCCC4)c3)o2)cc1,i,1.8%,-0.7
Cc1cc(C)nc(Sc2ccc3nnc(C(F)(F)C(F)(F)C(F)(F)F)n3n2)n1,i,-14%,-0.64
Cc1ccc(S(=O)(=O)Nc2ccc(C(=O)Nc3cc(C)on3)cc2)cc1,i,-3.6%,0.23
CCN=C1SC(CC(=O)NC(N)=O)C(=O)N1CC (stereo not given),i,-7.7%,-0.5
N#Cc1c(N2CCCCC2)nc(N2CCCCC2)c2c1CCN(Cc1ccccc1)C2,i,-0.1%,-1
Cc1cc(C)n(-c2ccc(Cl)c(C(=O)O)n2)n1,i,11%,0.16
# (cont.)
SMILES,MT1-MMP reporter,Hsc70,WNV NS2B-NS3 inh
CC(C)N(C(=O)N1CCC(c2nc(-c3ccncc3)no2)CC1)C(C)C,i,3.9%,-0.2
O=c1c2ccccc2nnn1CSc1nnc(-c2cccc(S(=O)(=O)N3CCCCC3)c2)o1,i,0.1%,0.23
Cn1nc(OCCOc2ccccc2)ccc1=O,i,6.2%,3.1
CCc1ccc(NC(=O)CC2NCCNC2=O)cc1 (stereo not given),i,-0.3%,0.1
COc1ccc(CNC(=O)C2CCCN(c3nccc(C)n3)C2)cc1 (stereo not given),i,-1.3%,.
CCOC(=O)c1cc2c(=O)n3cccc(C)c3nc2n(Cc2cccnc2)c1=N,i,6.3%,-0.39
Cn1c(=O)c2c(nc(SCC(=O)NCc3ccc4c(c3)OCO4)n2Cc2ccc(F)cc2)n(C)c1=O,i,-1.2%,.
